Compound activity: PubChem BioAssay, several laboratories
MT1-MMP act inh = MT1-MMP (human) activation inhibition; P50281; hit rate 0.061% among 360,000; HT1080 RFP-PRO-GFP cells, GFP/RFP ratio fluorescence, overnight; percent of plate control window, DMSO zero; GFP/RFP ratio change, % at 20 µM;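 active means GFP/RFP ratio change of at least 30% with cell ATP level not reduced by more than half and red fluorescence within 50% of control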; further: strong numbers were not always called active
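Test system: HT1080 RFP-PRO-GFP cells; Benchmarks: DMSO and RFP-L50D-GFP cell wells; Timing: cells overnight before dosing, compound overnight, 37 °C, 5% CO2; Compound: one 20 µM compound dose with 1% DMSO; Read-out: GFP/RFP fluorescence ratio.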
PABP polyA inh = blocks human PABP binding to poly(A) RNA; hit rate 1% among 290,000; P11940; AID 2014; inhibition, % at 35 µM; fluorescence polarization;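 active means 50% or more with normal probe brightness, or confirmed in later tests; inconclusive means above 50% with abnormal brightness, or retests that disagree; inactive means below 50% or failed in later tests; about a fifth of its hits are not listed in these tables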;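 further: calls also rest on retests at 20 µM and on dose response follow-up; controls were probe without protein and protein plus probe with vehicle; some compounds called inactive have numbers as strong as hits; many hits fall short of the cut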
Target sequence (P11940 whole entry, looked up): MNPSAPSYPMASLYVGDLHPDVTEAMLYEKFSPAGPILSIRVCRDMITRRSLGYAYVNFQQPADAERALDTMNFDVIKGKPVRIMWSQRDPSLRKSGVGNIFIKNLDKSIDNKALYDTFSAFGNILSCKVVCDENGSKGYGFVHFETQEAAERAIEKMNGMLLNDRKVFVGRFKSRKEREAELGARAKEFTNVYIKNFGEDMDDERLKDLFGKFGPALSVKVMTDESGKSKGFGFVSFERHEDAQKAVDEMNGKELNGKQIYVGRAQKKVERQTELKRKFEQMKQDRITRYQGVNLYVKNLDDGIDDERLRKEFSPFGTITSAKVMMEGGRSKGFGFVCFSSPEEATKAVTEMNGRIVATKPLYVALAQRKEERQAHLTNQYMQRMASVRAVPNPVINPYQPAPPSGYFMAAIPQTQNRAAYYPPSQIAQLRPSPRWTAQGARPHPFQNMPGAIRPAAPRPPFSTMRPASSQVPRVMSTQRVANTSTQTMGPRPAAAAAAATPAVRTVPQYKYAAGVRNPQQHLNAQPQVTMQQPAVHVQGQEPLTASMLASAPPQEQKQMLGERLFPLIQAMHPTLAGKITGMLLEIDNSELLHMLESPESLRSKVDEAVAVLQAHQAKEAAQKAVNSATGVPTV
eIF4H FP inh = inhibitors of RNA binding by human eIF4H; AID 2012; hit rate 0.94% among 290,000; eIF4H fluorescence polarization binding assay; inhibition, % at 35 µM;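 active means 50% or more with normal probe brightness, or confirmed in later tests; inconclusive means above 50% with abnormal brightness, or retests that disagree; inactive means below 50% or failed in later tests; about a fifth of its hits are not listed in these tables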;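 further: calls also rest on retests at 20 µM and on dose response follow-up; 0% = protein and probe with vehicle and 100% = probe without protein; strong numbers were not always called active; many hits fall short of the cut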
CSC inhib = blocks cancer stem cells. inhibition, % at 7.5 µM. hit rate 1.1% among 300,000. cancer stem cell-like cells viability, luminescence;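 active means mean at 75% or more and at least half the replicates too; inconclusive means mean and replicates disagree; tested in HMLE shEcad cells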;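 further: 0% = median of negative and 100% = median of positive control wells; the first replicate is given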
UUG fidelity = yeast start codon fidelity modulation. S. cerevisiae UUG-firefly luciferase reporter, luminescence/redox ratio. activity score, % at 18.7 µM. hit rate 0.13% among 350,000. AID 602363;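 active means replicate mean at a twofold rise or more, about +100% in these data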;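 further: firefly luciferase made from a UUG start codon reports start codon fidelity; reporter light over untreated wells divided by growth signal over untreated wells; some hits fall short of that in this replicate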
Rce1 inh = blocks yeast Ras-converting enzyme; Q03530; yeast membranes, quenched prenylated peptide cleavage fluorescence; calls only; hit rate 0.27% among 290,000;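 active means fall in fluorescence gain of 50% or more versus controls, with final raw signal at or below 3038400; inconclusive means same 50% fall but final raw signal above 3038400; inactive means fall in fluorescence gain under 50%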;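 further: plate controls were neutral control wells for no effect and wells lacking membranes for full effect; tested at 10 µM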
Env fusion inh = inhibitors of HIV Env-mediated cell fusion; HeLa-JRFL Env/CEM21 cell fusion, luciferase; hit rate 1.1% among 360,000; inhibition, % at 12.3 µM;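 active means mean replicate inhibition score of at least 50 and every replicate individually at or above 50; inconclusive means only one of the two criteria met; inactive means mean below 50 and not all replicates reaching 50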;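 further: 0% = plate neutral controls and 100% = maraviroc near 300 nM; one replicate is shown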
eIF4H FP inh retest = recorded beside eIF4H FP inh, whose call it bears; inhibition, %; compound at 20 µM; confirmation average;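 mean of two retest wells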
PABP polyA inh retest = second read-out of PABP polyA inh, no call of its own (marks repeat the call); inhibition, %; compound at 20 µM; confirmation repeats;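 mean of two retest wells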
MT1-MMP act inh RFP = further read-out of MT1-MMP act inh, marked with its call; RFP signal change, %; measured here: RFP expression control read;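 0 = vehicle wells; hits needed this value within 50% of zero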
Numbers without * were called inactive; i = inactive; ? = inconclusive; nt = no result given; + = active, no number.

Start of the data: the first five compounds, ahead of the listing:
SMILES | MT1-MMP act inh | MT1-MMP act inh RFP | PABP polyA inh | eIF4H FP inh | CSC inhib | UUG fidelity | Rce1 inh | Env fusion inh | others
COC(=O)/C(C#N)=C/N(C)C | 0 | 2 | 38 | 38 | 1 | nt | i | 2
O=C(COC(=O)c1c(Cl)ccc(Cl)c1Cl)NC1CCS(=O)(=O)C1 (stereo unspecified) | 1 | -2 | 8 | 4 | -13 | nt | i | -44
O=[N+]([O-])c1ccccc1/C=C/CN1CCSCC1 | 6 | 4 | 11 | 3 | -7 | -14 | i | -1
C=C(C)COc1ccc(-c2nc(N)ncc2-c2ccc(OC)cc2)c(O)c1 | nt | nt | -6 | -2 | nt | 1 | i | nt
COc1ccc(C2NC(c3ccc(OC)cc3)C(C)C(=O)C2C)cc1 (stereo unspecified) | 0 | -1 | -9 | -4 | 2 | -19 | i | -18

The whole of this part, previewed entries included:
SMILES | MT1-MMP act inh | MT1-MMP act inh RFP | PABP polyA inh | eIF4H FP inh | CSC inhib | UUG fidelity | Rce1 inh | Env fusion inh | others
COC(=O)/C(C#N)=C/N(C)C | 0 | 2 | 38 | 38 | 1 | nt | i | 2
O=C(COC(=O)c1c(Cl)ccc(Cl)c1Cl)NC1CCS(=O)(=O)C1 (stereo unspecified) | 1 | -2 | 8 | 4 | -13 | nt | i | -44
O=[N+]([O-])c1ccccc1/C=C/CN1CCSCC1 | 6 | 4 | 11 | 3 | -7 | -14 | i | -1
C=C(C)COc1ccc(-c2nc(N)ncc2-c2ccc(OC)cc2)c(O)c1 | nt | nt | -6 | -2 | nt | 1 | i | nt
COc1ccc(C2NC(c3ccc(OC)cc3)C(C)C(=O)C2C)cc1 (stereo unspecified) | 0 | -1 | -9 | -4 | 2 | -19 | i | -18
O=C(Nc1ccccc1)N1CCN(c2ccccn2)CC1 | 2 | 6 | -9 | -9 | -6 | -6 | i | nt
O=C(NNC(=O)c1ccc2ccccc2c1O)c1cccs1 | -9 | -13 | -3 | 7 | 1 | -15 | i | -123
Cc1ccc(CNS(=O)(=O)c2ccc3c(c2)CCN3C(=O)CCCC(=O)O)cc1 | 3 | 3 | -2 | 1 | -13 | nt | i | 6
O=C(NC1CCCC1)c1sc(=S)n2c1[nH]c(=O)c1ccccc12 | 5 | -15 | 15 | 2 | 58 | -23 | i | -54
C=CCNc1sc(C(=O)C2CC2)c(N)c1C#N | 1 | 3 | 13 | 8 | -1 | -15 | nt | nt
CCOC(=O)c1cnc2c(C(=O)OC)cccc2c1NCc1ccco1 | 2 | 1 | 17 | 14 | -8 | 0 | i | -33
O=C(NCCO)c1ccc(-c2ccc3nncn3c2)cc1 | 5 | 7 | nt | nt | nt | -21 | nt | 11
COc1cccc(NC(=O)CN(C)C(=O)[C@@H]2CCCN2C(=O)c2cccs2)c1 | -3 | 1 | nt | nt | 16 | -9 | nt | nt
NC(=O)c1cc([N+](=O)[O-])ccc1NCc1cnccn1 | 1 | 0 | nt | nt | 6 | -27 | nt | nt
Cc1ccc(Nc2ncnc3ccccc23)cc1 | 3 | 0 | 2 | 2 | nt | -18 | nt | -6
C=CCNc1nc(C(=O)OCC(=O)c2ccccc2)cs1 | -6 | -1 | 0 | 3 | 2 | -22 | i | -16
CC1(C)CC(=O)c2cc(OCC(=O)NCCCN3CCN(c4ccc(F)cc4)CC3)ccc2O1 | -1 | -12 | -12 | -8 | nt | 3 | i | 20
NNC(=O)Cn1cnc2ccccc21 | -9 | -6 | -8 | 8 | 0 | nt | i | -1
CCn1ncc(C(=O)Nc2cc(C)on2)c1C | 3 | 1 | 2 | -1 | 1 | -20 | i | -14
Cc1cc(C)n(-c2nc3c(c(=O)[nH]c(=O)n3C)n2CC(C)C)n1 | -2 | -2 | 7 | 0 | -6 | -5 | i | nt
CCN(CCn1cccn1)C(=O)C1CCC(=O)N(CCN2CCOCC2)C1 (stereo unspecified) | -1 | 4 | -14 | -15 | 10 | 7 | nt | nt
CCCc1c(C(=O)NNc2cccc(Cl)c2)cnn1-c1ccccc1 | -3 | -5 | -10 | -10 | 80* | nt | i | -8
Nc1ccc(Nc2nc3ccccc3[nH]2)cc1 | 5 | -1 | -12 | -8 | -8 | 10 | i | 2
CCCC1=C(C(=O)OCC)C(c2cc(Cl)cc(OC)c2OCC(=O)OCC)NC(=O)N1 (stereo unspecified) | -3 | -2 | -1 | -4 | -11 | 3 | i | nt
Cc1nn(-c2ccc(N3CCOCC3)nn2)c(C)c1CCC(=O)N1CCN(C)CC1 | 2 | 8 | 19 | 21 | 5 | -7 | i | 4
(listing goes on)
SMILES | MT1-MMP act inh | MT1-MMP act inh RFP | PABP polyA inh | eIF4H FP inh | CSC inhib | UUG fidelity | Rce1 inh | Env fusion inh | others
Cc1ccccc1OCCOC(=O)c1nc2nccc(C)n2n1 | 3 | 5 | 12 | -10 | -6 | -2 | i | 4
Cc1ccccc1/C=c1\s/c(=C\C(=O)C(C)(C)C)[nH]c1=O | -11 | -15 | 6 | 0 | 63 | -10 | i | nt
COc1ccccc1/C=C1/C(=O)ON=C1C | -2 | 1 | 16 | -1 | -8 | -13 | i | 0
Cc1ccc(Nc2nc(N)nc(CN3CCCCCC3)n2)c(C)c1 | 3 | 3 | -16 | -2 | -10 | -24 | i | nt
O=C(O)c1cccc(-n2c(/C=C/c3ccc([N+](=O)[O-])cc3)nc3ccccc3c2=O)c1 | 3 | -3 | -1 | -15 | -9 | -4 | i | 6
O=c1/c(=C\c2ccc(O)cc2)sc2n1C(c1ccccc1)C(c1ccccc1)=NN=2 (stereo unspecified) | -65 | -8 | 12 | 56 | -2 | -8 | i | nt | eIF4H FP inh retest=43;PABP polyA inh retest=28
COc1ccc(Nc2cc(=O)oc3ccccc23)cc1 | 3 | -10 | 6 | -9 | 58 | -2 | i | -45
CC(NCC(O)c1ccc([N+](=O)[O-])cc1)C12CC3CC(CC(C3)C1)C2 (stereo unspecified) | 3 | 3 | 12 | -8 | 9 | -5 | i | 1
CCOC(=O)c1ccc(-n2c(N)c(C(=O)NCc3ccco3)sc2=S)cc1 | -2 | -3 | 1 | 7 | -17 | -7 | i | nt
Clc1ccc(-c2ccc(CNCc3ccccn3)o2)cc1 | -1 | 0 | 5 | -5 | -8 | -23 | i | -2
CCN(CC)c1ccc(/C=C2/SC(=O)N(C(C)C)C2=O)o1 | -102 | 2 | 11 | 16 | nt | nt | i | -181
COc1ccccc1NC(=O)CN1CCN(c2ccc(F)cc2)CC1 | 4 | -3 | nt | nt | nt | -22 | nt | 15
COc1ccc(-n2c(C)cc(/C=N/Nc3nc(N4CCOCC4)nc(N4CCOCC4)n3)c2C)cc1 | -3 | -2 | 6 | 3 | 0 | nt | i | 0
COc1ccc(NC(=O)NC(C)(C(F)(F)F)C(F)(F)F)cc1 | -1 | 4 | 9 | -3 | 2 | 9 | i | nt
c1ccc(CN2CCN(C3=Nc4cccc5cccc3c45)CC2)cc1 | -5 | 2 | 71 | 94* | nt | -13 | i | nt | eIF4H FP inh retest=82*;PABP polyA inh retest=40
COC(=O)C1C(=O)C=C(Nc2ccc(F)cc2F)CC1c1ccc(OC)cc1 (stereo unspecified) | -1 | 0 | 11 | 0 | 0 | -6 | i | nt
CCN(CC)CCCNC(=O)c1ccc(Cl)c(S(=O)(=O)Nc2ccccc2OC)c1 | 0 | -7 | -8 | -7 | 21 | -19 | i | -120
CCCCn1c2nc3ccccc3nc2c2c(=O)n(CCC(C)C)cnc21 | 2 | -1 | -7 | 4 | -16 | nt | i | nt
CCOc1ccc(-n2cc(C(=O)N3CCC(C)CC3)c3cc(OC)c(OC)cc3c2=O)cc1 | 0 | 0 | -8 | -13 | 9 | 5 | i | 17
C#CCOCCOCCOCCNc1nc(N2CCN(C(=O)[C@H](CCCCN)n3cc([C@@H](N)[C@H](C)CC)nn3)CC2)nc(N2CCN(C(=O)[C@H](CCC(=O)O)n3cc([C@@H](N)CCCCN)nn3)CC2)n1 | 2 | 2 | nt | nt | -19 | 12 | nt | 13
Brc1ccccc1C1=Nn2c(nnc2-c2ccco2)SC1 | 0 | 1 | 13 | 11 | -2 | 12 | i | -4
O=C1N[C@@H](Cc2ccccc2)C(=O)N1CCN1CCOCC1 | 3 | 2 | 6 | -17 | -3 | -13 | i | -72
CCOC(=O)Cn1c(=NC(=O)c2cccs2)sc2cc(C(=O)OC)ccc21 | 3 | 1 | 2 | 4 | 3 | nt | i | -68
O=C(COC(=O)C1CCN(S(=O)(=O)c2ccc3c(c2)OCCO3)CC1)NC1CCS(=O)(=O)C1 (stereo unspecified) | 1 | -1 | nt | nt | -9 | -3 | i | 5
Cc1nc(N2CCOCC2)c2c(C)c(C(=O)Nc3ccccc3C(F)(F)F)sc2n1 | 3 | 0 | 3 | -5 | -3 | 21 | + | 4

Next section, overlapping the part above by 4 compounds.
SMILES | MT1-MMP act inh | MT1-MMP act inh RFP | PABP polyA inh | eIF4H FP inh | CSC inhib | UUG fidelity | Rce1 inh | Env fusion inh | others
O=C1N[C@@H](Cc2ccccc2)C(=O)N1CCN1CCOCC1 | 3 | 2 | 6 | -17 | -3 | -13 | i | -72
CCOC(=O)Cn1c(=NC(=O)c2cccs2)sc2cc(C(=O)OC)ccc21 | 3 | 1 | 2 | 4 | 3 | nt | i | -68
O=C(COC(=O)C1CCN(S(=O)(=O)c2ccc3c(c2)OCCO3)CC1)NC1CCS(=O)(=O)C1 (stereo unspecified) | 1 | -1 | nt | nt | -9 | -3 | i | 5
Cc1nc(N2CCOCC2)c2c(C)c(C(=O)Nc3ccccc3C(F)(F)F)sc2n1 | 3 | 0 | 3 | -5 | -3 | 21 | + | 4
Nc1nnc(CC2=CCCCC2)s1 | 8 | 7 | 2 | 2 | -2 | -17 | i | 4
CCCNC(=O)C12CCC(C)(C(=O)O1)C2(C)C (stereo unspecified) | 1 | 5 | -4 | 2 | 5 | -6 | i | -8
CC1(C)CC2CC(C)(CN2CC(=O)C(C#N)c2ccccc2)C1 (stereo unspecified) | -7 | 3 | 9 | 2 | nt | -16 | i | 1
O=C(COC(=O)/C=C/C(=O)OCC(=O)Nc1ccccc1F)Nc1ccccc1F | -4 | 9 | 4 | -8 | ? | nt | i | 1
Cc1ccc(OCCOCCN2CCN(C)CC2)c([N+](=O)[O-])c1 | -1 | 5 | 7 | 8 | nt | nt | i | 2
Cc1ccc(N2C(=O)CC(Sc3cccs3)C2=O)cc1 (stereo unspecified) | -4 | 1 | -11 | -14 | -9 | nt | i | -10
CC1CCN(C(=O)Cn2cnc3c2c(=O)n(C)c(=O)n3C)c2ccccc2S1 (stereo unspecified) | -5 | -4 | 3 | 1 | -17 | 1 | i | 10
